VDR inhibitor: Inhibitors of the vitamin D receptor (VDR): qHTS; Vitamin D3 receptor (Homo sapiens), P11473; Potency, µM, for the others: max response, negative = inhibition, actives largely listed as inhibitors; AID 504847, 2011; VDR-SRC2-3 peptide fluorescence polarization, 2 h; hit rate 0.93% among 400,000; active = well fitted inhibition curve with a large enough effect; inconclusive = small, poorly fitted or top-dose-only effect, or another doubt; inactive = no such curve, though single readings can be large or run the other way; also: series mostly up to about 120 µM
Target sequence (P11473 whole entry, looked up): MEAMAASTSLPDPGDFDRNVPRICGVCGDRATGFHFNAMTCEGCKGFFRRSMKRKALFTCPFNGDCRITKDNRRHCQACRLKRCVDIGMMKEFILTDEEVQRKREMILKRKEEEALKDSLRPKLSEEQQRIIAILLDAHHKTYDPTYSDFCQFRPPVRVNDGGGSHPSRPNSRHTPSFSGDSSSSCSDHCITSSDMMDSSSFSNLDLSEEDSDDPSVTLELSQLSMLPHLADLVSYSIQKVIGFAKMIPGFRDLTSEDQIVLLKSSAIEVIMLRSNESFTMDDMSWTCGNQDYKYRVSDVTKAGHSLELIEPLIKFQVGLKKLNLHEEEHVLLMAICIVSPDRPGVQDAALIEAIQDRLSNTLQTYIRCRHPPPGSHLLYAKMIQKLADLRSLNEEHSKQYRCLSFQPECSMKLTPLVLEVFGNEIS
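FP read-out; VDR + SRC2-3 coactivator peptide; 23 nl compound by pintool; 2 h RT incubation; reagents held at 4 deg C, protected from light.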
* = called active by the depositor; ? = inconclusive; & = joins results of further samples. % is scaled to controls: 0 for no effect and ±100 for the full control effect; potency is read from the fitted curve at half-maximal effect. These rows are one share of the data; the hit share may differ from the screen's.

SMILES | VDR inhibitor
Cc1cc(C)cc(N2C(=O)NC(=O)/C(=C\C=C\c3ccco3)C2=O)c1 | -22%
O=C(c1cc(F)ccc1F)C1CCCN(Cc2cc(Cl)ccc2O)C1 (stereo not drawn) | -16%
CCCCn1c(=O)c(C(=O)Nc2ccc(C)cn2)c(O)c2ccccc21 | 1%
CCCNC(=O)N1[C@H]2CC[C@@H]1C(C(=O)OC)=C(c1ccc(Cl)c(C(F)(F)F)c1)C2 | ?
Cc1nc2ccc(Cl)cc2c(=O)n1-c1ccccc1Cl | -27%
CC[N@+]1(C)CCC[C@@H](OC(=O)C(O)(c2ccccc2)c2ccccc2)C1 | -3%
O=P(Oc1ccc(Cl)cc1)(N1CC1)N1CC1 | 5%
CCC(=O)N1N=C(c2c(O)n(CCc3ccccc3)c(=O)[nH]c2=O)CC1c1ccc(OC)c(OC)c1 (stereo not drawn) | -4%
CC(C)Cc1nnc(NC(=O)CCC(=O)N2CCN(CCOC(c3ccccc3)c3ccccc3)CC2)s1 | -15%
C[N+]1(C)CCc2cc3c(cc2C1C1OC(=O)c2c1ccc1c2OCO1)OCO3 (stereo not drawn) | -6%
CN(C)C1(CNC(=O)c2cc(S(=O)(=O)N3CCOCC3)c(Cl)cc2Cl)CCCCC1 | 8%
Cc1nc2ccccc2c(=O)n1-c1ccc(-c2ccccc2)cc1 | 2%
C=C1C/C(=C\C)C(=O)O[C@@H]2CCN3CC=C(COC(=O)[C@@]1(C)O)[C@H]23 | 14%
CCCC(C)c1nnc(NC(=O)CCS(=O)(=O)c2ccccc2)s1 (stereo not drawn) | 25µM*
COC(=O)C1C2c3ccccc3C(c3ccccc32)C1(C)C(=O)OC (stereo not drawn) | 6%
Brc1nc(-c2ccccc2)nc(-c2ccccc2)c1Br | ?
Cc1ncc([N+](=O)[O-])n1CCOC(N)=O | -10%
COc1cccc(-c2cc(C(F)(F)F)n3nc(C(=O)N4CCC5(CC4)OCCO5)cc3n2)c1 | -5%
Fc1ccc(C(OCCN2CCCC2)c2ccc(Br)cc2)cc1 (stereo not drawn) | 8%
COc1ccc(-c2cc(=O)oc3c(C)c(OC(C)C(=O)N4C[C@H]5C[C@@H](C4)c4cccc(=O)n4C5)ccc23)cc1 (stereo partly drawn) | 0%
O=c1c2ccccc2nc(/C=C/c2ccccc2)n1-c1ccc(O)cc1 | 16%
CC(C)CC1(CCc2ccccc2)C(=O)NC(=O)NC1=O | -5%
CC(=O)c1cccc(NC(=O)c2cccn(Cc3cccc(C)c3)c2=O)c1 | 6%
CCCc1cc(=O)oc2cc(OCC(=O)N3CCC(C(=O)O)(c4ccccc4)CC3)ccc12 | -29%
CC[N+](CC)(CC)CCCOC(=O)C(O)(c1ccccc1)C1CCCCC1 (stereo not drawn) | 3%
C=C[C@H]1CN2CCC1C[C@@H]2C(O)c1ccnc2ccccc12 (stereo partly drawn) | 6%
Cc1ccc2c(c1)C1CN(C)CCC1N2C(=O)Cc1cccs1 (stereo not drawn) | -3%
CCN1CCN(CC(=O)c2c(C)n(Cc3ccccc3)c3ccc(OC)cc23)CC1 | ?
COC(=O)C1C(OC(=O)c2ccccc2)CC2CCC1N2C (stereo not drawn) | -8%&12%&-6%
Oc1ccc(Cl)cc1 | -18%&4%&0%

Molecules from the list above containing fluorine, in the order listed:
SMILES | VDR inhibitor
O=C(c1cc(F)ccc1F)C1CCCN(Cc2cc(Cl)ccc2O)C1 (stereo not drawn) | -16%
CCCNC(=O)N1[C@H]2CC[C@@H]1C(C(=O)OC)=C(c1ccc(Cl)c(C(F)(F)F)c1)C2 | ?
COc1cccc(-c2cc(C(F)(F)F)n3nc(C(=O)N4CCC5(CC4)OCCO5)cc3n2)c1 | -5%
Fc1ccc(C(OCCN2CCCC2)c2ccc(Br)cc2)cc1 (stereo not drawn) | 8%

Structures shown so far that contain sulfur (four):
SMILES | VDR inhibitor
CC(C)Cc1nnc(NC(=O)CCC(=O)N2CCN(CCOC(c3ccccc3)c3ccccc3)CC2)s1 | -15%
CN(C)C1(CNC(=O)c2cc(S(=O)(=O)N3CCOCC3)c(Cl)cc2Cl)CCCCC1 | 8%
CCCC(C)c1nnc(NC(=O)CCS(=O)(=O)c2ccccc2)s1 (stereo not drawn) | 25µM*
Cc1ccc2c(c1)C1CN(C)CCC1N2C(=O)Cc1cccs1 (stereo not drawn) | -3%

Further entries.
SMILES | VDR inhibitor
CC[n+]1c(-c2ccccc2)c2cc(N)ccc2c2ccc(N)cc21 | 6.3µM*
COc1ccccc1-n1c(-c2ccc(C)cc2)nc2ccccc2c1=O | 7%
O=c1cccc2n1CC1CC2CN(c2ncnc3c2cnn3-c2ccccc2)C1 (stereo not drawn) | -5%
CN(C)C(=O)Oc1ccc(OCc2n(C)c3ccccc3[n+]2C)cc1 | 6%
COCCCNC(=O)Cn1cc(/C=C2\C(=O)NC(=O)N(c3ccccc3F)C2=O)c2ccccc21 | ?
CC(N)Cc1cn(Cc2ccccc2)c2ccccc12 (stereo not drawn) | -16%
CC12CCC(=O)C=C1CCC1C2C(O)CC2(C)C(O)CCC12 (stereo not drawn) | -9%
CCCOC(=O)C1C2c3ccccc3C(c3ccccc32)C1C(=O)O (stereo not drawn) | 16%
CC1(C)C2CC=C(CN3CCOCC3)C1C2 (stereo not drawn) | 1%
Cc1cc(C(=O)Nc2ccccc2)nn1C(C)(C)C | 18%
CCOC(=O)c1c(C)n(Cc2ccccc2)c2ccc(OCC(O)Cn3nc(C)nc3C)cc12 (stereo not drawn) | 3%
CCOC(=O)c1c(N)n(Cc2ccco2)c2nc3ccccc3nc12 | -1%
Oc1ccc2c3c1O[C@H]1c4c(c5ccccc5n4Cc4ccccc4)C[C@@]4(O)C(C2)N(CC2CC2)CC[C@]314 | ?
O=C(O)C1C2c3ccccc3C(=O)C1(C(=O)O)c1ccccc12 (stereo not drawn) | -4%
C=C[C@H]1CN2CC[C@H]1C[C@@H]2[C@@H](O)c1ccnc2ccccc12 | -20%
CC(=O)Nc1ccc(OCCF)cc1 | -13%
COc1cc(C(=O)N/N=C/C23CC[C@@H](O)CC2(O)CC[C@@H]2[C@@H]3CCC3(C)C(C4=CC(=O)OC4)CCC23O)ccc1O (stereo partly drawn) | -13%
Cn1c(O)c(/C=C/C=Nc2ccccc2)c(=O)n(C)c1=S | -9%
CCC(=NCC1CCCO1)c1c(O)n(-c2ccccc2C)c(=O)[nH]c1=O (stereo not drawn) | 8%
COc1ccc(Br)cc1CNCCc1ccc2c(c1)OCO2 | 2%
Brc1ccccc1CNCCc1ccc2c(c1)OCO2 | -16%
Cc1ccc(N2C(=O)NC(=O)/C(=C\c3cnc(-c4ccccc4)nc3)C2=O)cc1 | 22µM*
CC(C)(c1ccc(OCC2CO2)cc1)c1ccc(OCC2CO2)cc1 (stereo not drawn) | ?
CC(=NCc1cccnc1)c1c(O)n(-c2ccc(C)cc2)c(=O)[nH]c1=O | 7%
Cn1cc(C(=O)N2CCCCC2)c2ccccc21 | 8%
Cn1cccc1C1CCCN1CC(=O)Nc1ccc(C#N)c(Cl)c1 (stereo not drawn) | 1%
CCOC(=O)Cn1cc(C(=O)c2ccccc2)c2ccccc21 | -5%
O=S(=O)(c1ccc(Cl)cc1Cl)N1CCCC1c1cccnc1 (stereo not drawn) | 4%
O=C(Nc1ccc(C(F)(F)F)cc1)OC1CN2CCC1CC2 (stereo not drawn) | -4%
c1ccc(N2CCC3(CCNCC3)CC2)cc1 | ?

Given as labelled records: 2 of the compounds above
Molecule: Cn1c(O)c(/C=C/C=Nc2ccccc2)c(=O)n(C)c1=S
  VDR inhibitor: -9%
Molecule: CCC(=NCC1CCCO1)c1c(O)n(-c2ccccc2C)c(=O)[nH]c1=O (stereo not drawn)
  VDR inhibitor: 8%

Additional records.
SMILES | VDR inhibitor
COc1cc(CCN)ccc1O | 11%
COc1ccc(C(=O)C2CCCN(CCO)C2)c(C)c1 (stereo not drawn) | 1%
Cc1nn(Cc2ccccc2)c(Cl)c1C(=O)Nc1ccc(OC(F)(F)F)cc1 | -23%
N=C1c2ccccc2CN1c1ccc(F)c([N+](=O)[O-])c1 | 19%
O=C(CCCN1CCC2(CC1)C(=O)NCN2c1ccccc1)c1ccc(F)cc1 | 1%&0%&-5%
O=C1CS[C@@H](c2ccccc2Cl)c2cc(Cl)ccc2N1 | -8%
C=CCn1cc(C=C2C(=O)NC(=O)NC2=O)c2ccccc21 | 7%
O=C1NC(=O)C(=Cc2ccc(-c3ccc(F)cc3O)o2)C(=O)N1 | 28µM*
CCN(CC)C(=O)c1ccc(NC(=O)COc2ccc(-c3nn(C)c(=O)c4ccccc34)cc2)cc1 | 8%&0%
Oc1ccc(Cl)cc1CN1CCN(Cc2ccccc2)CC1 | -25%
CC12CC[C@H]3[C@@H](CCC4(O)C[C@H](O)CCC34/C=N/NC(=O)Cc3ccccc3)C1(O)CCC2C1=CC(=O)OC1 (stereo partly drawn) | -8%
C=CCn1c(O)c(/C(CC)=N/NC(=S)Nc2ccccc2)c(=O)[nH]c1=O | 4%
COc1cccc(NP(=O)(Oc2ccccc2)Oc2ccccc2)c1 | -6%
CC(C)(C)c1ccc(CN2C(=O)CN=C(c3ccccc3)c3ccccc32)cc1 | 5%
O=C(Cn1ncc2ccccc21)N1CCC2(CC1)OCCO2 | 4%
COc1ccc(CCNCc2ccncc2)cc1 | 5%
CC[N+](C)(CC)CCCCOc1ccc2c(c1)C(=O)c1cc(OCCCC[N+](C)(CC)CC)ccc1-2 | -16%
O=C(CCC(=O)N1CCC2(CC1)OCCO2)Nc1nnc(C2CCCCC2)s1 | -2%
CCN1C(=O)/C(=C/c2ccc3c(c2)CCN3CCCCl)C(=O)NC1=S | -5%
CC(C)CNC(=O)c1c(N)n(Cc2ccc3c(c2)OCO3)c2nc3ccccc3nc12 | -13%
CC(O)C1C=CC=CC(=O)OC2CC3OC4C5OC5(C)CCC4(COC(=O)C4OC4(C)C(O)CO1)C2(C)C31CO1 (stereo not drawn) | ?
CC(C)NC(C)C | 3%
COc1ccc(CCNCc2ccc(F)cc2)cc1OC | -16%
C=CCn1c(O)c(C(CC)=Nc2ccc(N(C)C)cc2)c(=O)[nH]c1=O | ?
CCOc1cc2c(cc1OCC)-n1cccc1C(c1ccccc1OC)NC2 (stereo not drawn) | -2%
CCN1C[C@]2(COC)CC[C@H](O)[C@@]34C5C[C@@H]6[C@@H](OC)C[C@@](O)(C5[C@H]6O)[C@](O)([C@@H](OC)C23)[C@@H]14 (stereo partly drawn) | -8%
C/C(=C\[C@@H](N)C(=O)O)CP(=O)(O)O | -5%
O=S1(=O)N(Cc2ccccc2)CCCN1Cc1ccc(F)cc1Cl | -3%
CC(C)C12CN3CC(C(C)C)(CN(C1)C3c1cccnc1)C2=O (stereo not drawn) | 5%
CCNC(=O)[C@H]1O[C@@H](n2cnc3c(N)ncnc32)[C@H](O)[C@@H]1O | 25%&2%&0%&8%
CCOc1ccc(C=C2C(=O)NC(=S)NC2=O)cc1OCC | 28µM*
OCCOc1ccccc1 | -19%&4%
OC(Cc1ccccc1)(c1ccccc1)C1CN2CCC1CC2 (stereo not drawn) | -6%
c1ccc([C@@H]2CO2)cc1 | -6%
COC(=O)C1=C(c2ccc(OCc3ccccc3)cc2)C[C@@H]2CC[C@H]1N2C(=O)NCCN1CCOCC1 | -6%
C[C@@H]1O[C@H](O[C@@H]2CC[C@@]3(C=O)[C@H]4CC[C@@]5(C)[C@@H](C6=CC(=O)OC6)CC[C@@]5(O)[C@@H]4CC[C@]3(O)C2)C[C@H](O)[C@@H]1O | -11%
CC(Cc1ccc(C(C)(C)C)cc1)CN1CCCCC1 (stereo not drawn) | 7%
CCOc1ccccc1N=C1SCCCN1C | 12%
CCOc1ccc2nc(N3CCC(C(=O)N4CCC5(CC4)OCCO5)CC3)sc2c1 | 11%
Cc1ccc(N2C(=O)NC(=O)/C(=C\C=C\c3ccco3)C2=O)cc1 | ?
Cc1ccc2c(c1)N(C(=O)CCC(=O)N1CCC3(CC1)OCCO3)CCO2 | 12%
CN1CCCC1C(O)(c1ccccc1)c1ccccc1 (stereo not drawn) | 3%
O=C(CN1CCN(Cc2cccc(Cl)c2)C1=O)N1CCC2(CC1)OCCO2 | 10%
O=c1[nH]c(=S)n(-c2ccc(F)cc2)c(O)c1/C=N/N1CCOCC1 | -18%
COC(=O)c1ccc(N2CCN(C)CC2)c([N+](=O)[O-])c1 | 7%
FC(F)(F)C1=NC(C(F)(F)F)=NP(N2CCOCC2)(N2CCOCC2)=N1 | 3%
COc1ccc(C2=NS(=O)(=O)N(C)C(C(=O)N3CCC4(CC3)OCCO4)=C2)cc1OC | -2%
O=C(O)C12C3CCCC1C32c1ccccc1 (stereo not drawn) | -8%
COc1cc([C@H]2OC[C@H]3[C@@H]2CO[C@@H]3c2cc(OC)c(O[C@@H]3O[C@H](CO)[C@@H](O)[C@H](O)[C@H]3O)c(OC)c2)cc(OC)c1O[C@H]1O[C@@H](CO)[C@H](O)[C@@H](O)[C@@H]1O | -7%
CCCCc1nc2ccccc2c(=O)n1-c1ccc(O)cc1 | 4%
O=c1[nH]c(=S)[nH]c(O)c1N=Nc1cccc(S(=O)(=O)N2CCOCC2)c1 | -8%
COC(=O)CN1C(=O)C2(C(C(=O)OC)=C(N)Oc3ccccc32)C2=C1CC(C)(C)CC2=O (stereo not drawn) | 7%
Clc1ccccc1CN1CCN(c2ccccc2Cl)CC1 | -1%
Fc1ccc(CCNCc2cccc(Cl)c2)cc1 | -12%
O=C(NCCCN1CC1)Nc1cccc2ccccc12 | -3%

Screening data: PubChem, National Center for Advancing Translational Sciences (NCATS)
